# Compound activity (PubChem BioAssay)
# VDR inhibitor: vitamin D3 receptor (human) inhibition; AID 504847; VDR-SRC2-3 peptide fluorescence polarization, 2 h; actives 0.93% (n = 400,000); Potency, µM, inactives show max response, negative = inhibition, actives largely listed as inhibitors; active = well fitted inhibition curve with a large enough effect; inconclusive = small, poorly fitted or top-dose-only effect, or another doubt; inactive = no such curve, though single readings can be large or run the other way; also: series mostly up to about 120 µM
# Target sequence (P11473 whole entry, looked up): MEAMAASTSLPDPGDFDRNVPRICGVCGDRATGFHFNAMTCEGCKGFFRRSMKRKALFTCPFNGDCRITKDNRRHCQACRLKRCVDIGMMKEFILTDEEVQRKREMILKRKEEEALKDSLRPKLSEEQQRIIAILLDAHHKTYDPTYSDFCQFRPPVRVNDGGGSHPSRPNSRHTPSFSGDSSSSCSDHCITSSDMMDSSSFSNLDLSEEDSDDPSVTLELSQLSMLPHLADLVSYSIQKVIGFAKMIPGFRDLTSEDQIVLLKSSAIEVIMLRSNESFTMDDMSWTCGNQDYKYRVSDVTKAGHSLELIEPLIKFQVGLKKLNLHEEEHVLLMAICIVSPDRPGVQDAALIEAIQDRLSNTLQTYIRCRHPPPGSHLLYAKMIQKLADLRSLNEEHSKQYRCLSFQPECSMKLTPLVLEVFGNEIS
#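 Reagent solutions, kept cold and dark, are dispensed first; compounds are then pinned in at 23 nl, plates briefly spun, and incubated 2 h at ambient temperature. Inhibition of VDR–SRC2-3 peptide binding is read by fluorescence polarization.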
# The depositor's hits bear a star; ? = inconclusive; & = joins results of further samples. % is scaled to controls: 0 for no effect and ±100 for the full control effect; potency is read from the fitted curve at half-maximal effect. These rows are one share of the data, so the mix of outcomes need not match the whole.
SMILES,VDR inhibitor
COc1ccccc1CNC(=O)CSCc1nc(-c2ccc(OC)c(OC)c2)oc1C,-28.2%
CCN(CC)S(=O)(=O)c1ccc2[nH]c(=O)c3ccccc3c2c1,6.9%
O=c1[nH]n(-c2ccccc2)c(=O)c(Cl)c1Cl,1.7%
Cc1cccc(NC(=O)CSc2nnc(CNC(=O)c3ccco3)n2C)c1C,-11.2%
COc1ccccc1N1CCN(S(=O)(=O)c2ccc3nc(-c4ccccc4)[nH]c3c2)CC1,-8.7%
COc1ccc(-c2c(C)nn(-c3ccccc3)c2N)cc1,-4.1%
CCOC(=O)c1c(Nc2cccc(C(=O)OC)c2)nnc(-c2ccccc2)c1-c1ccccc1,-15.4%
Cc1n[nH]c(C)c1S(=O)(=O)N1CCCC(C(=O)N2CCc3ccccc32)C1 (centres undefined),3.1%
C[C@@H](C(=O)NC1CCCCC1)N1C(=O)N2CCc3c([nH]c4ccccc34)[C@@]2(C)C1=O,-16.0%
O=C(Nc1ncccc1Cl)C1COc2ccccc2O1 (centres undefined),-9.3%
Cc1c(OCC(=O)N[C@@H](Cc2ccccc2)C(=O)O)ccc2c3c(c(=O)oc12)CCC3,-4.0%
NS(=O)(=O)c1ccc(CCNC(=O)CSc2nc3ccsc3c(=O)n2C2CC2)cc1,6.9%
Cc1ccc(Cn2c(CO)cnc2SCC(=O)Nc2ccc(C)c(Cl)c2)cc1,8.9%
Cc1ccc(-c2nc(S(=O)(=O)c3ccc(C)cc3)c(N3CCN(c4ccccc4)CC3)o2)cc1,8.8%
CC1(C)CC(NC(=O)c2ccncc2)CC(C)(C)N1O,9.2%
CCCCCc1ccc(-c2cn(CC3CCCCC3)nn2)cc1,-24.6%
COc1ccc(-c2nc3ccccn3c2Nc2ccccc2C)cc1,-4.6%
CN(Cc1ccccc1)C(=O)COC(=O)c1cc([N+](=O)[O-])ccc1N1CCOCC1,-4.6%
O=C(N=Nc1c(O)[nH]c2ccc([N+](=O)[O-])cc12)c1ccccc1[N+](=O)[O-],13.7%
CCc1nc(SCC(=O)N2CCCCC2)c2c(=O)n(C)c(=O)n(C)c2n1,-6.1%
CCC(C)n1c(OC)nc2c1c(=O)n(C)c(=O)n2C (centres undefined),?
CCOc1ccc(/C=C2\SC(=O)N(CCNC(=O)CN3C(=O)NC4(CCCC4)C3=O)C2=O)cc1OC,6.1%
CC(/C=N/n1c(-c2cc(C)[nH]n2)n[nH]c1=S)=C\c1ccco1,-16.5%
Cc1ccc(C)c(OCC(=O)Nc2ccccc2C(=O)N2CCN(C)CC2)c1,10.1%
O=C(Cc1ccccc1)Nc1ccc(Cl)cn1,0.9%
COC(=O)c1ccccc1NC(=O)C1CCCN(c2nnc(-n3cccc3)s2)C1 (centres undefined),10.8%
O=C(c1cccs1)c1coc2ccc(O)c(CN(CCO)CCO)c12,-4.3%
Cc1nn(C(=O)c2cccnc2)c(C)c1Sc1ccccc1,-3.2%
COc1ccc(CCC(C)N(C)Cc2ccccc2)cc1 (centres undefined),-4.9%
CC[C@H]1CCCCc2ccccc2[C@@H](C(=O)C[C@@H](O)CC(C)=O)OC1=O,12.4%
O=C(O)C1CCN(C(=O)CSc2nc3ccccc3s2)CC1,?
N#CC[C@H](Cc1ccccc1)N1CCN(CCc2ccccc2)CCC1=O,-11.5%
CCOc1ccc(NC(=O)Cn2cc(C(=O)CC)c3ccccc32)cc1,79.4µM*
Cc1ccc(NC(=O)c2cnn(-c3ccccc3)c2NC(=O)c2ccco2)cc1,-21.7%
COc1ccccc1Nc1ncc(C(=O)Nc2ccc(OC)c(OC)c2)c2ccccc12,-3.3%&-3.0%
CC(C)OCCCn1c(=O)c2ccccc2n2c(CCC(=O)O)nnc12,15.0%

# An excerpt of these results, bar-delimited:
mol | VDR inhibitor
Cc1nn(C(=O)c2cccnc2)c(C)c1Sc1ccccc1 | -3.2%
COC(=O)c1ccccc1NC(=O)C1CCCN(c2nnc(-n3cccc3)s2)C1 (centres undefined) | 10.8%
O=C(Cc1ccccc1)Nc1ccc(Cl)cn1 | 0.9%
O=C(c1cccs1)c1coc2ccc(O)c(CN(CCO)CCO)c12 | -4.3%
N#CC[C@H](Cc1ccccc1)N1CCN(CCc2ccccc2)CCC1=O | -11.5%
COc1ccccc1Nc1ncc(C(=O)Nc2ccc(OC)c(OC)c2)c2ccccc12 | -3.3%&-3.0%

# Remaining list, next part.
SMILES,VDR inhibitor
NC(=O)c1ccc(NC(=O)C2CCN(S(=O)(=O)Cc3ccccc3)CC2)cc1,14.6%
COc1ccc2nc(SCc3cccc(C)c3)nc(C)c2c1,5.9%
COc1cc(C(=O)c2c(C)c(CCC#N)n3ccccc23)cc(OC)c1OC,3.6%
COC(=O)CCC(=O)Nc1ccc(S(=O)(=O)N2CCc3ccccc32)cc1,-3.7%
CCOc1ccc(N2CC(C(=O)Oc3ccccc3)CC2=O)cc1 (centres undefined),5.1%
CCOC(=O)c1[nH]c2c(c1Cc1ccccc1)C(=O)CC(c1ccc(C(C)(C)C)cc1)C2 (centres undefined),-8.3%
CCOC(=O)c1cnc(SC)nc1Oc1cccc(NS(=O)(=O)c2ccc(C)cc2)c1,10.9%
CCN(CC)S(=O)(=O)c1ccc(NC(=S)NC(=O)C2CCC2)cc1,6.9%
Cc1ccc(S(=O)(=O)c2nnn(-c3ccc(F)c(Cl)c3)c2N)cc1,10.6%
O=C(Nc1nc2ccc(S(=O)(=O)N3CCCCC3)cc2s1)c1cccnc1,6.8%
CS(=O)(=O)N(Cc1ccccc1)c1ccc(C(=O)N2CCc3ccccc3C2)cc1,9.0%
CC(=O)N1CCc2cc(S(=O)(=O)CCC(=O)Nc3cc(C)cc(C)c3)ccc21,5.1%
Cn1cc(CN2CCN(CCc3ccccc3)C(CCO)C2)cn1 (centres undefined),-11.5%
C=CCn1c(SCC(=O)Nc2ccccc2F)nnc1C(C)NC(=O)c1ccccc1F (centres undefined),-0.7%
CC(C)(C)OC(=O)N1CCC(C(=O)Nc2ccc(C(=O)N3CCCC3)cc2)CC1,-4.4%
CCOc1ncccc1C(=O)N1CCCSC1=Nc1ccccc1OC,14.5%
O=C(CSc1nnc(CNc2ccc(F)cc2)n1-c1ccccc1)N1CCOCC1,-3.3%
CCOC(=O)c1c(N)sc(C(=O)N(C)C)c1C,6.8%
Cc1cc(SCc2ccc(C(F)(F)F)cc2)nc(=O)[nH]1,-5.7%
CCOC(=O)C1(CCOC)CCN(Cc2ccc(C3CCCCO3)s2)CC1 (centres undefined),-6.2%
CCOC(=O)c1c(NC(=O)COC(=O)Cn2c(C)nc3ccccc32)sc2c1CCCC2,6.4%
O=C(C1CCCN1S(=O)(=O)c1ccc(Cl)cc1)N1CCOCC1 (centres undefined),-3.3%
Cc1cccn2c(CN3CCSCC3)c(C(=O)N3CCOCC3)nc12,14.7%
COc1cccc(CN2CCSCC2)c1,1.1%
Cc1nn(-c2ccccc2)c2nc(=O)n(-c3ccccc3)cc12,?
CCOc1cccc(C2C=C(c3ccc4c(c3)OCO4)NC(c3ccc(Cl)cc3)N2)c1O (centres undefined),-28.2%
COc1cccc(CC(=O)Nc2ccc(N3CCOCC3)c(S(=O)(=O)Nc3ccccc3OC)c2)c1,-4.1%
N=C(N)SCP(=O)(c1ccccc1)c1ccccc1,-18.8%
CCCOc1ccc(C(=O)CCCC(=O)c2ccc(OCCC)cc2)cc1,-7.3%
C=CCn1c(C(C)NC(=O)c2cccc(C)c2)n[nH]c1=S (centres undefined),-20.4%
COc1ccccc1NS(=O)(=O)c1cc(C(=O)N2CCCCCCC2)ccc1C,-6.6%
CC(C)NC(=O)/C(=C/c1cn(-c2ccccc2)nc1-c1cccc([N+](=O)[O-])c1)NC(=O)c1ccccc1,8.9%
CN1CC(=O)N(CC(=O)Nc2cccc(C#N)c2)c2ccccc2C1=O,1.5%
COc1ccc(-n2nc(C(=O)NCC(=O)NCCCN3CCOCC3)c3ccccc3c2=O)c(OC)c1,-15.6%
CCOc1ccc(C(=O)c2cc3ccc(O)cc3oc2=O)cc1,2.1%
CC1CC2C3CCC4=CC(=O)C=CC4(C)[C@@]3(Cl)C(O)CC2(C)C1(O)C(=O)CO (some centres undefined),-8.7%
Cc1cccc(NC(=O)Cc2cccs2)n1,9.0%
CC(C#N)(NC(=O)CN1CCN(S(=O)(=O)c2ccccc2C#N)CC1)C1CC1 (centres undefined),9.7%
CCC(C)c1ccccc1N1CC(C(=O)Nc2cccc(S(=O)(=O)N3CCOCC3)c2)CC1=O (centres undefined),-6.0%
CC(C)CC(NS(=O)(=O)c1ccc2[nH]c(=O)c(=O)[nH]c2c1)C(=O)O (centres undefined),-3.3%
O=C(Nc1c(Br)cc2c(c1Br)Cc1cc([N+](=O)[O-])ccc1-2)C(Cl)Cl,-23.2%
O=C1C(O)=C(O)C(=O)c2ccccc21,8.91µM*
COc1ccccc1N1CCN(C2CCCN(Cc3c(F)cccc3F)C2)CC1 (centres undefined),-9.1%
CCC(=O)N1CCc2cc(Br)cc(S(=O)(=O)CCC(=O)N(CC)Cc3ccccc3)c21,8.9%
Oc1c(Br)cccc1/C=N/Nc1c(F)c(F)c(F)c(F)c1F,-13.4%
CCOC(=O)CNC(=O)C1c2ccccc2Oc2ccccc21,-5.5%
CC(C)CCn1c(N2CCN(c3cccc(Cl)c3)CC2)nc2c1c(=O)[nH]c(=O)n2C,6.5%
COc1cc(C2CC(c3ccccc3)=NN2c2ccccc2)ccc1OCC(=O)O (centres undefined),-13.7%
CC(=O)C(N=Nc1ccccc1)(Sc1nnc(-c2ccccc2)n1-c1ccccc1)C(=O)Nc1ccccc1 (centres undefined),-5.7%
OC(COc1ccc2cc(Br)ccc2c1)Cn1ccnc1 (centres undefined),15.0%
CC(C)Cc1nn2c(N)c(/C=C3\C=Nc4ccccc43)c(=O)nc2s1,8.0%
Cc1onc(-c2ccccc2)c1NC(=O)N(Cc1ccccc1)C(C)C,-5.3%
COc1cccc(N2CCN(c3nc(-c4ccccc4C)cc(=O)[nH]3)CC2)c1,19.8%
COc1ccc(CCN2C(=O)CSC2=Nc2ccc(C(C)C)cc2)cc1OC,2.7%
Cc1nnc(N2C(=O)C(O)=C(C(=O)c3ccco3)C2c2ccc(C(C)(C)C)cc2)s1 (centres undefined),-7.9%
Fc1cccc(CN2CCC(Cc3ccccc3)CC2)c1,-1.4%
COc1cccc(C2c3cc4c(cc3OC(N3CCOCC3)C2C)OCO4)c1O (centres undefined),0.9%
CCN(CC(=O)Nc1c(F)cccc1F)C(=O)CNC(=O)c1ccc2ccccc2c1,7.6%
CC[C@H](C)[C@H](NC(=O)CNC(=O)[C@H](CCCNC(=N)N)NC(=O)[C@H](CO)NC(=O)[C@H](C)NC(=O)[C@H](Cc1ccc(O)cc1)NC(=O)[C@H](Cc1c[nH]c2ccccc12)NC(=O)[C@H](C)NC(=O)[C@@H]1CCCN1C(=O)[C@H](CC(N)=O)NC(=O)[C@@H](NC(=O)[C@H](CC(=O)O)NC(=O)[C@@H]1CCCN1C(=O)[C@@H](N)[C@@H](C)O)[C@@H](C)CC)C(=O)N[C@@H](CCCNC(=N)N)C(=O)N1CCC[C@H]1C(=O)N[C@H](C(=O)NCC(=O)N[C@@H](CCCNC(=N)N)C(=O)N[C@@H](Cc1ccccc1)C(N)=O)C(C)C,4.2%
NC(=O)NC(=O)C(Nc1ccc(N2CCCCC2)cc1)c1ccccc1 (centres undefined),-12.7%

# Looked up one by one from the list above (2):
SMILES,VDR inhibitor
CC(=O)C(N=Nc1ccccc1)(Sc1nnc(-c2ccccc2)n1-c1ccccc1)C(=O)Nc1ccccc1 (centres undefined),-5.7%
Cc1nnc(N2C(=O)C(O)=C(C(=O)c3ccco3)C2c2ccc(C(C)(C)C)cc2)s1 (centres undefined),-7.9%

# More records:
SMILES,VDR inhibitor
Cc1ccc(-c2cc(C(=O)Nc3ccc(S(=O)(=O)N4CC(C)OC(C)C4)cc3)[nH]n2)c(O)c1 (centres undefined),7.1%
Cc1ccc(C(=O)c2oc3ccccc3c2NC(=O)c2cc(-c3ccccc3)on2)cc1,-5.4%
CCOC(=O)Nc1ccc(S(=O)(=O)Nc2cc(C)on2)cc1,-2.9%
CNC(=O)OCc1cccc(COC(=O)NC)n1,13.2%&6.5%
O=C(Cn1ccc2cc(S(=O)(=O)N3CCCCCC3)ccc21)NCCc1ccccc1Cl,-7.8%
COc1ccccc1NC(=O)c1cc(S(=O)(=O)N2CCc3ccccc32)ccc1F,-2.4%&10.2%
Cc1sc2nc(SCC(=O)NCc3cccs3)[nH]c(=O)c2c1C,6.8%
CCc1ccccc1NC(=O)c1c(NC(=O)c2ccccc2)sc2c1CCCC2,-9.4%
Cc1cccc(/N=C/c2c(O)[nH]c3ccccc23)n1,2.9%
CCOc1ccccc1NC(=O)Nc1cc(OC)ccc1OC,5.0%
CC(C)CCNc1nc2c(-c3ccccc3)nnn2c2ccccc12,-5.3%
CC(CC(=O)OCC(=O)NC1CCS(=O)(=O)C1)c1ccccc1 (centres undefined),16.8%
Cc1ccc(S(=O)(=O)Cc2ccc(C(=O)N3CCC(C)CC3)cc2)cc1,-1.7%
Fc1ccc(C2=CC(c3ccc(Br)o3)n3ncnc3N2)cc1 (centres undefined),?
CCN1CCC2(CC1)N=C(c1ccc(F)cc1)C(=S)N2C(=O)c1ccc(C(C)(C)C)cc1,79.4µM*

# Quoted from the listing:
# VDR inhibitor, CC(C)CCNc1nc2c(-c3ccccc3)nnn2c2ccccc12 : -5.3%
# VDR inhibitor, CCc1ccccc1NC(=O)c1c(NC(=O)c2ccccc2)sc2c1CCCC2 : -9.4%
# VDR inhibitor, CNC(=O)OCc1cccc(COC(=O)NC)n1 : 13.2%&6.5%
# VDR inhibitor, CC(CC(=O)OCC(=O)NC1CCS(=O)(=O)C1)c1ccccc1 (centres undefined) : 16.8%
# VDR inhibitor, COc1ccccc1NC(=O)c1cc(S(=O)(=O)N2CCc3ccccc32)ccc1F : -2.4%&10.2%
